Polio RdRp inh: poliovirus RdRp elongation inhibitors, primary screen, biochemical, fluorescence polarization, total intensity | Genome polyprotein (Poliovirus type 1 (strain Mahoney)), P03300 | poliovirus polymerase elongation; stronger effect = lower value | % elongation, % (compound at 16.7 µg/mL) | 150,000 tested, 0.66% active | AID 588519, 2011; in the data active = % elongation below about 90%; also: some results filed as inactive read as strong as hits
Target sequence (P03300 1749-2209 limits assumed): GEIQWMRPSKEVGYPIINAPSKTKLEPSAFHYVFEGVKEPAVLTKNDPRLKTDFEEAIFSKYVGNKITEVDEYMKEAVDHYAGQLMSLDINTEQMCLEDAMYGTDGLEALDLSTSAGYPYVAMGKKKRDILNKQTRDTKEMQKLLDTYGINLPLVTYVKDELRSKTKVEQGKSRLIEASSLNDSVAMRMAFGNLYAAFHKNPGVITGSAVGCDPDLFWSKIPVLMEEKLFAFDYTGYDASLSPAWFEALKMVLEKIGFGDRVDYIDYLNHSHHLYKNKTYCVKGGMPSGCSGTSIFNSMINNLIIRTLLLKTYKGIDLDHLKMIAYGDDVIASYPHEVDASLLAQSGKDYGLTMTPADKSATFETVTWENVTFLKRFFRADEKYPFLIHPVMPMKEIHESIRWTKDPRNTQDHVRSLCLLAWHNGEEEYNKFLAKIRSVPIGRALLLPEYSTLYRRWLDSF
Polio RdRp inh intensity: recorded beside Polio RdRp inh, whose call it bears; % elongation; measured here: total intensity read-out; formula for this scale not given here;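 total fluorescence in place of polarization; lower means less elongation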
* = called active by the depositor.

SMILES	Polio RdRp inh	Polio RdRp inh intensity
COc1ccc(C)cc1NC(=O)COCc1cc(-c2cccs2)on1	108	110
CCC(Cn1nnc2ccccc2c1=O)NC(=O)Nc1ccccc1OC (stereo not given)	107	112
Cc1ccc(CN2C(=O)C3(SCC(=O)N3c3ccc(C)c(C)c3)c3ccccc32)cc1 (stereo not given)	99	101
Cc1ccc(NC(=O)c2c(C)oc3ccc(O)c(CN4CCCCCC4)c23)cc1	106	100
COc1cc(-c2nnc(SCC(=O)NC(C)C)o2)cc(OC)c1OC	109	105
O=C(CN1C(=O)COc2ccc(S(=O)(=O)N3CCOCC3)cc21)N1CCN(c2ccccc2)CC1	112	109
CCOc1ccc(OCC)c(NC(=O)C2CCCN(S(=O)(=O)c3cc(Br)cc4c3N(C(=O)CC)CC4)C2)c1 (stereo not given)	101	107
CSc1ccc(CCNC(=O)CCc2c(C)nc3c(-c4ccccc4)c(C)nn3c2C)cc1	110	113
COc1cccc(OCCSc2nc3ccccc3n2CC(=O)N2CCCCC2)c1	111	112
COc1ccc(C(=O)Nc2ccc(C(=O)OCc3cc(=O)n4nc(C5CC5)sc4n3)cc2)cc1	107	102

Reprinted from the part before: two compounds, then new ones.
SMILES	Polio RdRp inh	Polio RdRp inh intensity
COc1cccc(OCCSc2nc3ccccc3n2CC(=O)N2CCCCC2)c1	111	112
COc1ccc(C(=O)Nc2ccc(C(=O)OCc3cc(=O)n4nc(C5CC5)sc4n3)cc2)cc1	107	102
CCOC(=O)c1c(C)oc2nc(C)nc(N(C)Cc3ccccc3)c12	102	94
COc1cccc(C(=O)N2c3ncnn3C3(CCCCC3)[C@@H]3CCCC[C@@H]32)c1	106	109
Cc1ccc(NC(=O)Cn2ncn3c(cc4ccccc43)c2=O)cc1C	106	113
O=C(CC1N=C2c3ccccc3N=C(SCc3cccc(Cl)c3)N2C1=O)NCc1ccc2c(c1)OCO2 (stereo not given)	105	106
Cc1ccc2[nH]c3c(=O)n(CC(=O)N(C)Cc4ccccc4)ncc3c2c1	107	105
CCc1nn(CC(=O)N2CCN(c3cccc(C)c3C)CC2)c(=O)c2cc3occc3n12	98	102
CCCc1nn2c(=O)cc(COC(=O)c3ccc(NC(=O)C4CCCCC4)cc3)nc2s1	104	111
COc1ccccc1N1CCN(C(=O)CN2C(=O)COc3ccc(S(=O)(=O)N4CCCCCC4)cc32)CC1	103	107
COc1ccccc1Cc1nc2ccccc2nc1SCC(=O)Nc1c(C)cccc1C	105	107
COc1ccc(OC)c(S(=O)(=O)NCCS(=O)(=O)N2CCN(c3ccccc3)CC2)c1	106	106

Structures above containing an aryl methoxy group:
SMILES	Polio RdRp inh	Polio RdRp inh intensity
COc1ccc(C)cc1NC(=O)COCc1cc(-c2cccs2)on1	108	110
CCC(Cn1nnc2ccccc2c1=O)NC(=O)Nc1ccccc1OC (stereo not given)	107	112
COc1cc(-c2nnc(SCC(=O)NC(C)C)o2)cc(OC)c1OC	109	105
COc1cccc(OCCSc2nc3ccccc3n2CC(=O)N2CCCCC2)c1	111	112
COc1ccc(C(=O)Nc2ccc(C(=O)OCc3cc(=O)n4nc(C5CC5)sc4n3)cc2)cc1	107	102
COc1cccc(C(=O)N2c3ncnn3C3(CCCCC3)[C@@H]3CCCC[C@@H]32)c1	106	109
COc1ccccc1N1CCN(C(=O)CN2C(=O)COc3ccc(S(=O)(=O)N4CCCCCC4)cc32)CC1	103	107
COc1ccccc1Cc1nc2ccccc2nc1SCC(=O)Nc1c(C)cccc1C	105	107
COc1ccc(OC)c(S(=O)(=O)NCCS(=O)(=O)N2CCN(c3ccccc3)CC2)c1	106	106

Following part
SMILES	Polio RdRp inh	Polio RdRp inh intensity
O=C(Nc1ccc(O)c(-c2nc3ccccc3o2)c1)c1sc2ccccc2c1Cl	107	107
Fc1ccc(N2CCN(c3ncnc4[nH]ncc34)CC2)cc1	107	109
COc1ccc(-c2cn3c(n2)sc2cc(C(=O)Nc4ccc(C)c(C)c4)ccc23)cc1	112	109
Cc1ccc(Cl)cc1-n1c(=O)c2sc3ccccc3c2n(CC(=O)NC2CCCCC2)c1=O	100	107
CNC(=O)c1c(NC(=O)c2ccc(S(=O)(=O)N3CCCCC3C)cc2)sc2c1CCC2 (stereo not given)	104	106
CCc1ccc(CNC(=O)C2CCCN(c3nn4cc(-c5ccc(F)cc5)nc4s3)C2)cc1 (stereo not given)	109	110
Cc1c(Cl)cccc1NC(=O)C(=O)NCC(c1cccnc1)N1CCN(c2ccccc2)CC1 (stereo not given)	105	107
Cc1cc(C)cc(-n2nnc(-c3nsc(NC(=O)c4ccccc4Cl)n3)c2C)c1	106	112
CN1CCN(C(CNC(=O)c2ccc(F)cc2)c2ccc3c(c2)OCO3)CC1 (stereo not given)	109	106
CCOC(=O)CC(NC(=O)CCc1c(C)nc2c(c1C)c(=O)n(C)c(=O)n2C)c1ccc(OCC)c(OC)c1 (stereo not given)	112	114
Cc1noc(/C=C/c2cccs2)c1S(=O)(=O)N1CCC(C(=O)NCc2ccccc2Cl)CC1	108	111
Cc1ccc(-n2c(=O)c3c(c4cc(C)ccc4n3C)n(CC(=O)c3ccc(Cl)cc3)c2=O)cc1	106	103
CC1CCN(S(=O)(=O)c2cc(C(=O)NCc3ccc(N(C)C)cc3)n(C)c2)CC1	101	100
Cc1cc(C)cc(C(=O)Nc2cccc(-c3nc4ncccc4o3)c2C)c1	104	109
COc1ccc(C)cc1NC(=O)c1c(C(=O)Nc2cccc(C)c2C)sc2nc(C)cc(=O)n12	106	112
C=Cc1ccc(CSc2nc(-c3ccc(C)cc3)nc3c2Cc2c(CO)cnc(C)c2O3)cc1	108	113
COc1ccc(/C=C\c2onc(C)c2S(=O)(=O)N2CCC(C(=O)Nc3ccccc3OC)CC2)cc1	104	105
CCCOc1ccc(C(=O)Nc2ccc(NC(=O)c3ccc(Br)cc3)cc2)cc1	107	113
COc1cc(C2C(C(=O)Nc3ccccc3)=C(C)Nc3nc(SCc4ccccc4F)nn32)cc(OC)c1OC (stereo not given)	100	97
Cc1cc(C)cc(-n2c(SCC(=O)NC3CCCCC3)nc3c([nH]c4ccccc43)c2=O)c1	113	120
CCCN(CCC)C(=O)CSc1nc2sc3c(c2c(=O)n1-c1ccccc1)CCN(C(C)=O)C3	99	95
COc1ccc(S(=O)(=O)N(C)Cc2nc(-c3cccc(C)c3)no2)cc1	108	111
CCOC(=O)Cn1c(=O)cc(-c2ccccc2)c2c(C)nn(C)c21	113	111
CCc1ccccc1NC(=O)C1CCCN(S(=O)(=O)c2ccc3[nH]c(=O)ccc3c2)C1 (stereo not given)	110	109
CCOc1ccc(NC(=O)Cn2c(=O)cc(C)c3c(C)nn(-c4cccc(Cl)c4C)c32)cc1	109	102
COc1ccccc1CNC(=O)C1CCCN(c2nnc(C)c3c(C)n(-c4ccccc4)nc23)C1 (stereo not given)	108	112
Cc1ccc(NC(=O)C2CCC(CNS(=O)(=O)c3ccc4c(c3)CCCC(=O)N4)CC2)cc1F (stereo not given)	108	113
Cc1ccc(N2C(=O)C(CC(=O)Nc3ccc(F)cc3)N(CCC3=CCCCC3)C2=O)cc1 (stereo not given)	100	100
COc1ccccc1CNC(=O)Cn1c(-c2ccc(F)cc2)cc(C(C)=O)c1C	99	100
COc1ccccc1CNC(=O)CCc1c(C)nc2cc(-c3ccccc3OC)nn2c1C	106	106
CCOc1ccc(C2c3[nH]c4ccccc4c3CCN2C(=O)CSCc2ccc(F)cc2)cc1 (stereo not given)	105	106
Cc1cc(C)cc(NC(=O)CSc2nnc(-c3cc4occc4n3C)n2-c2ccccc2C)c1	113	112
CCCC(CCC)C(=O)Nc1cccc(-c2nc3cccnc3s2)c1C	103	106
N#C/C(=C\c1c(Oc2ccc(Br)cc2)nc2ccccn2c1=O)c1nc2ccccc2s1	95	113
CCOC(=O)c1ccccc1NC1(c2ccc(OC)cc2)C(=O)c2ccccc2C1=O	109	109
COc1ccc(CCNC(=O)c2ccc3c(c2)N(Cc2ccc(Cl)cc2)C(=O)c2ccccc2S3)cc1OC	109	104
CCN(CC)CCCNC(=O)C(=O)Nc1ccc2nc3n(c(=O)c2c1)CCCCC3	107	110
CN1CCN(C(=O)C(=O)Nc2c3c(nn2-c2ccc(F)cc2)CSC3)CC1	114	111
CCOC(=O)c1c(C)oc2nc(C)nc(Nc3cc(C)cc(C)c3)c12	105	110
Cc1ccc(C)c2sc(N3CCN(C(=O)C(C)(C)C)CC3)nc12	100	110
Cc1cccc(Cn2c(COc3ccccc3)nc3ccccc32)c1	103	106
CCOC(=O)c1c(S(=O)(=O)N2CCCC(C(=O)NCc3cccc(C)c3)C2)c(C)n(C)c1C (stereo not given)	104	105
Cc1ccc2c(c1)c1c(c(=O)n(-c3ccccc3)c(=O)n1CC(=O)NCC1CCCO1)n2C (stereo not given)	109	107
Cc1ccc(NC(=O)C(=O)NCC2(c3ccccc3)CCCC2)cc1Cl	104	110
CN(C)CCN(Cc1ccco1)C(=O)c1cc2c(s1)-c1ccccc1OC2	104	107
O=C(NC1CCCCC1)c1ccc2c(c1)N(Cc1ccccc1)C(=O)c1ccccc1S2	112	118
O=C(NCc1ccccc1)c1ccc(NC(=O)N2CCSc3ncccc32)cc1	104	97
CCC(C)NC(=O)C1=CC(c2ccc3c(c2)OCO3)=NS(=O)(=O)N1C (stereo not given)	111	111
CCCC(=O)NCC(c1ccc2c(c1)OCO2)N1CCOCC1 (stereo not given)	112	114
Oc1c(C(c2ccc(Cl)cc2Cl)N2CCOCC2)sc2nc(-c3ccco3)nn12 (stereo not given)	105	106

(more compounds)
SMILES	Polio RdRp inh	Polio RdRp inh intensity
CCN1CCC(N(Cc2ccc3c(c2)OCO3)C(=O)Nc2ccccc2OC)CC1	114	111
CCc1cccc(C)c1NC(=O)COCc1cc(-c2ccc3c(c2)OCO3)on1	103	104
CCCSc1ncc(Cl)c(C(=O)Nc2sc3c(c2C(N)=O)CCCC3)n1	108	107
Nc1cc(=O)nc(SCC(=O)Nc2ccc(F)cc2)n1-c1ccc(Cl)cc1	107	110
COc1cc2c(cc1OC)n(CC(=O)c1ccc(C)cc1C)c(=O)n1nc(CCn3nc(C)cc3C)nc21	101	99
CCOc1ccc(C(=O)Nc2ccc3oc(-c4cccc5ccccc45)nc3c2)cc1	102	111
Cc1cccc(C(=O)Nc2cccc(C(=O)OCc3cc(=O)n4ccsc4n3)c2)c1	103	102
Cc1ccc(-c2nnc(SCC(=O)NCCC(C)C)nc2-c2ccc(C)cc2)cc1	104	97
CN1C(=O)Cc2cc(S(=O)(=O)CCC(=O)Nc3ccc(Cl)cc3)ccc21	107	109
COc1ccc(-c2cn3cccnc3n2)cc1NC(=O)c1c(F)cccc1F	109	111
CC1CN(C(=O)N2CCC(C(=O)NC3CCCCCC3)CC2)c2cc(Cl)ccc2O1 (stereo not given)	110	105
Cc1ccccc1COC(=O)c1ccc(-c2nnn(Cc3ccccc3F)n2)cc1	109	109
CCOC(=O)c1cc(-c2ccccc2)n(-c2cccc(C(=O)NC(C)CC)c2)c1C (stereo not given)	100	103
CCCc1ccc(NC(=O)C2CCN(c3cnccn3)CC2)cc1	111	104
Cn1c(=O)n(C/C=C/c2ccccc2)c(=O)c2c1nc1n2CCN1c1ccc(Cl)cc1	109	111
Cc1ccc(Cn2c(=O)n(-c3ccc(C)c(C)c3)c(=O)c3c(C)c(C)sc32)cc1	107	104

Screening results deposited in PubChem by ICCB-Longwood Screening Facility, Harvard Medical School.

Only part of the results is shown; count on the stated rates, not on these rows.
